# Compound activity as filed in PubChem BioAssay.
# Mtb hypoxia rep – inhibitors of hypoxia-regulated fluorescent reporter in Mycobacterium tuberculosis | M. tuberculosis hypoxia-regulated fluorescent reporter, fluorescence | fluorescence inhibition, % (test concentration not listed) | 300,000 compounds, 0.1% hits;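 active = 35 to 45% if threefold the growth effect, above 45% if 1.5-fold the growth effect; inactive = the rest, general growth blockers included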;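 note: wells of about 50 µL received 100 nL stock; 0% = vehicle wells and 100% = reference inhibitor wells; whole bacteria with a GFP reporter of the hypoxia response; strong numbers were not always called active; many hits fall short of the cut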
# Autofluor counter – flagged as autofluorescent in microsphere protease counterscreen | compound autofluorescence counterscreen, microsphere flow cytometry; stronger effect = higher value | fluorescence intensity (concentration not given with the values) | 360,000 compounds, 3.1% hits | AID 624483;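 active = at least 3 SD above the mean of all compounds, about 16000 in these data; inconclusive = too few beads counted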;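 note: 100 nL of 1 mM stock went into each well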
# RN4220 kill – S. aureus RN4220 growth inhibition. OD600, 16 h. inhibition, % (concentration not given with the values). 330,000 compounds, 0.33% hits;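 active = z-score of -3 or lower and OD600 up to 0.18 on both plates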;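 note: plate controls were untreated cells for no effect and reference antibiotic for full effect; stock transfer was 100 nL into about 80 µL; one replicate is shown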
# BJeLR lethal – BJeLR cell viability loss | inhibition, % (no concentration beside the values) | AID 1554 | 300,000 compounds, 0.17% hits | BJeLR (HRASV12) viability, CellTiter-Glo ATP luminescence, 48 h; reference of the scale not given here;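 active = replicate mean above 50%; inconclusive = above 50% but judged a plate artefact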;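 note: 50 nL library stock added to about 25 µL; numbers are from one replicate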
# Sa ugtP lethal – compounds lethal to S. aureus RN4220 ugtP deletion mutant; growth inhibition, % (no concentration beside the values); AID 1259309; OD600 growth, 16 h; some inactives read as strong as hits; 330,000 compounds, 0.54% hits;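 active = z-score under -3 and OD600 up to 0.15 on both plates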;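 note: plate controls were untreated wells for no effect and antibiotic for full effect; wells of about 80 µL received 100 nL stock; the first replicate is given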
# PrP 5UTR inh – suppresses PrP 5' UTR mRNA reporter expression | cell-based PrP 5' UTR mRNA reporter, plate reader | inhibition, % (concentration not given with the values) | 340,000 compounds, 0.35% hits;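 active = every replicate at 50% or more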;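 note: 0 = median of the neutral control wells; tested in H4 reporter cells; numbers are from one replicate; inactives centre near -14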
# Mtb hypoxia rep growth – second read-out of Mtb hypoxia rep, no call of its own (marks repeat the call); growth inhibition, %; measured here: M. tuberculosis growth (absorbance);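 0% = vehicle and 100% = reference antibiotic; read after six days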
# Starred values were filed as active, the others as inactive; u = inconclusive; x = no result given.
SMILES,Mtb hypoxia rep,Mtb hypoxia rep growth,Autofluor counter,RN4220 kill,BJeLR lethal,Sa ugtP lethal,PrP 5UTR inh
N=c1n(CCO)c2ccccc2n1Cc1ccc(Cl)cc1,x,x,2808,-3.7,-10,-10,6
CC(OC(=O)CN1C(=O)c2ccccc2C1=O)C(=O)NC1CCCCC1C (configuration not stated),3,-15,u,3.4,-4,6,-16
CC1CCCCN1C(=O)c1ccc(CS(=O)(=O)Cc2ccccc2)cc1 (configuration not stated),11,13,5391,0.9,-11,5,-7
CC(=O)c1ccc(NC(=O)C(C)OC(=O)c2ccc(NS(=O)(=O)c3ccc(F)c(F)c3)cc2)cc1 (configuration not stated),16,4,2523,-2.5,1,-1,-18
O=C(NCc1ccc(F)cc1)C1CC(=O)N(C2CCCCCCC2)C1 (configuration not stated),17,8,6260,-0.5,11,-1,-2
Cc1csc(NC(=O)C2CCCC2)n1,15,9,3433,2.5,-2,1,-35
CC12CCC(C(=O)Nc3cc(Cl)ccc3Cl)(C/C1=N\O)C2(C)C (configuration not stated),x,x,5895,x,-6,x,-33
CC12CCC(=O)C=C1C(O)CC1C2CCC2(C)C1CCC2(O)C(=O)CO (configuration not stated),2,2,2919,1.1,x,4,5
CC(Oc1ccccc1)C(=O)OCC(=O)Nc1sccc1C(N)=O (configuration not stated),4,2,x,4.5,x,5,-18
O=C(Cc1coc2ccc3ccccc3c12)NCc1cccs1,5,-2,1976,7.0,-2,10,-3
O=C(O)/C=C/c1ccccc1Oc1ccc(Cl)cc1Cl,13,6,3705,20,10,-7,4
CCOc1ccc(C(C)=NN2C(=O)C(CC(=O)Nc3ccc(OC)cc3[N+](=O)[O-])SC2=Nc2cccc(C)c2C)cc1 (configuration not stated),-4,15,x,5.2,x,-3,x
CCCCCCCC(=O)N/N=C/c1ccc([N+](=O)[O-])o1,x,x,2528,x,0,x,-23
CC(=O)c1ccc(OCC(O)CN2CC(C)OC(C)C2)cc1 (configuration not stated),x,x,2930,1.9,-3,1,-15
O=C(O)/C=C\C(=O)Nc1ccccc1C(=O)NCc1ccccc1,x,x,4837,-6.3,8,-3,-3

# Filtered by structure, the compounds so far with a thiophene ring, fused or not.
SMILES,Mtb hypoxia rep,Mtb hypoxia rep growth,Autofluor counter,RN4220 kill,BJeLR lethal,Sa ugtP lethal,PrP 5UTR inh
CC(Oc1ccccc1)C(=O)OCC(=O)Nc1sccc1C(N)=O (configuration not stated),4,2,x,4.5,x,5,-18
O=C(Cc1coc2ccc3ccccc3c12)NCc1cccs1,5,-2,1976,7.0,-2,10,-3

# The main list resumes, starting 5 compounds before the break.
SMILES,Mtb hypoxia rep,Mtb hypoxia rep growth,Autofluor counter,RN4220 kill,BJeLR lethal,Sa ugtP lethal,PrP 5UTR inh
O=C(O)/C=C/c1ccccc1Oc1ccc(Cl)cc1Cl,13,6,3705,20,10,-7,4
CCOc1ccc(C(C)=NN2C(=O)C(CC(=O)Nc3ccc(OC)cc3[N+](=O)[O-])SC2=Nc2cccc(C)c2C)cc1 (configuration not stated),-4,15,x,5.2,x,-3,x
CCCCCCCC(=O)N/N=C/c1ccc([N+](=O)[O-])o1,x,x,2528,x,0,x,-23
CC(=O)c1ccc(OCC(O)CN2CC(C)OC(C)C2)cc1 (configuration not stated),x,x,2930,1.9,-3,1,-15
O=C(O)/C=C\C(=O)Nc1ccccc1C(=O)NCc1ccccc1,x,x,4837,-6.3,8,-3,-3
Cc1ccc(S(=O)(=O)NCC(=O)OC(C(=O)c2ccccc2)c2ccccc2)cc1 (configuration not stated),3,12,10342,-0.6,-1,-8,-18
COC(=O)c1ccc(NC(=S)NCCCn2ccnc2)cc1,15,0,2610,0.3,x,-2,-18
CC(=O)NCCC(=O)Nc1nc(C)c(Cc2ccc3c(c2)OCO3)s1,-7,6,2608,3.0,0,2,-16
Cc1nnc(NCc2cccc(Cl)c2)c2ccccc12,x,x,3803,-5.2,3,-7,-12
CC(=O)Nc1sc2c(c1CN1CCCC1)CCCC2,-4,0,4900,2.0,-2,0,4
CC1CCCN(S(=O)(=O)c2cc3c4c(c2)CCN4C(=O)CC3)C1 (configuration not stated),0,-8,4153,3.0,-2,6,-33
Cc1cccc(N2C(=O)N3C(c4ccc(F)cc4)C4C(=O)N(C5CCCCC5)C(=O)C4[C@]3(Cc3ccccc3)C2=O)c1 (some centres not stated),3,9,x,6.0,x,5,x
CCc1ccc(S(=O)(=O)NC2CC(C)(C)NC(C)(C)C2)cc1,x,x,4005,x,0,x,-3
CCNc1nc(NCC)nc(N/N=C/c2ccccc2)n1,x,x,3073,x,-8,x,-6
Cc1cc(Oc2nc3c(C)cccn3c(=O)c2/C=C(\C#N)S(=O)(=O)c2ccccc2)ccc1Cl,5,-2,2507,6.3,8,-23,-15
Cc1c(-n2c(SCC(=O)N(C)C3CCS(=O)(=O)C3)nc3ccccc3c2=O)c(=O)n(-c2ccccc2)n1C (configuration not stated),-2,5,4542,6.7,1,3,-17
COc1ccc(C(=O)Nc2ccc(S(=O)(=O)N3CCCC3)cc2)c(OC)c1,6,3,8039,6.4,1,-3,-29
CC1=NN2C(=N)/C(=C\c3ccc(SCc4ccccc4)o3)C(=O)N=C2S1,6,-1,3875,-1.3,-9,5,-6
O=C1CC(N2CCC(O)(c3ccc(Cl)cc3)CC2)C(=O)N1 (configuration not stated),x,x,2810,0.0,1,3,-15
COc1ccc(OC)c(-c2cc(C3CCN(c4cc(Cl)nc(N)n4)CC3)[nH]n2)c1,-5,-6,9288,2.1,8,-10,3

# 2 entries from above, set out differently:
canonical_smiles	Mtb hypoxia rep	Mtb hypoxia rep growth	Autofluor counter	RN4220 kill	BJeLR lethal	Sa ugtP lethal	PrP 5UTR inh
O=C1CC(N2CCC(O)(c3ccc(Cl)cc3)CC2)C(=O)N1 (configuration not stated)	x	x	2810	0.0	1	3	-15
COc1ccc(OC)c(-c2cc(C3CCN(c4cc(Cl)nc(N)n4)CC3)[nH]n2)c1	-5	-6	9288	2.1	8	-10	3

# Next section
SMILES,Mtb hypoxia rep,Mtb hypoxia rep growth,Autofluor counter,RN4220 kill,BJeLR lethal,Sa ugtP lethal,PrP 5UTR inh
NC(=O)c1ccsc1NC(=O)COC(=O)CCCOc1ccccc1,0,0,u,2.2,x,-5,-12
COC(=O)Cn1c(=NC(=O)CCS(=O)(=O)c2ccccc2)sc2c(OC)ccc(OC)c21,2,4,6267,0.5,-1,-4,13
O=C(CCNS(=O)(=O)c1ccccc1)NNC(=O)C1COc2ccccc2O1 (configuration not stated),3,0,5524,1.6,4,6,-5
CCc1nnc(NC(=O)C2CC(=O)N(Cc3ccco3)C2)s1 (configuration not stated),15,6,4605,2.6,-12,0,-32
O=C(CSc1nnc(-c2ccccc2F)n1CCc1ccccc1)Nc1ccc2[nH]c(=O)[nH]c2c1,10,6,2195,3.9,5,-3,-18
CCSc1nc2ccccc2n1CCOc1ccccc1,x,x,3158,3.4,0,10,-43
Cc1ccoc1C(=O)NCCCNC(=O)c1occc1C,x,x,2798,1.3,8,4,-21
COc1cccc(CC(=O)NN2C(=O)NC3(CCCCC3)C2=O)c1,3,4,5722,1.6,x,0,7
O=C(CCCSc1nc2sc3c(c2c(=O)[nH]1)CCC3)NCCCO,12,4,7478,2.2,7,2,-3
Nc1c(-c2ccccc2)c(CN2CCOCC2)nn1-c1cccc([N+](=O)[O-])c1,-4,7,3761,-0.3,-10,3,-49
CCOc1ccc(S(=O)(=O)NCc2ccncc2)cc1NC(=O)c1ccccc1F,-5,-8,3055,-3.2,13,-8,2
CC#CCN1C(=O)NC(c2ccccc2)C(C(=O)OC)=C1C (configuration not stated),12,7,x,6.7,x,4,x
Cc1noc(C)c1S(=O)(=O)N(CC(=O)NC(C)c1ccccc1)c1ccc(C(C)C)cc1 (configuration not stated),0,-5,5958,1.8,-2,0,-28
COc1cccc(/C=N/n2cnc3cc(C)c(C)cc32)c1OC,x,x,4774,x,-4,x,-40
C[C@H](O)[C@@H]1C(=O)N2CCc3ccc(-c4cccc(F)c4)cc3[C@@H]2C[C@@H]1N(C)C(=O)Nc1ccccc1,-16,2,4016,-0.1,x,-13,-6
COc1cc(C=NNC(=O)c2ccc(-c3ccccc3)cc2)ccc1OCC(N)=O,1,4,x,6.2,x,3,x
O=C(C1=C[C@@H](c2ccc(C(F)(F)F)cc2)C[C@@H](OCc2ccc(CO)cc2)O1)N1CCOCC1,x,x,4185,x,8,x,-12
COc1ccc(OCC(=O)NN=C(C)c2cccs2)cc1,6,-3,x,0.4,x,0,x
Cc1ccc(S(=O)(=O)N2CCN(C(=O)c3cc(S(=O)(=O)N(C)C)ccc3N3CCCC3)CC2)c(C)c1,-11,3,u,1.1,x,-4,-11
COC(=O)c1cccnc1-n1c(=O)c2cccnc2n(Cc2cccc(C(F)(F)F)c2)c1=O,11,5,5976,7.2,-6,3,-16
CCOc1ccccc1C1C2C(=O)N(c3ccccc3)C(=O)C2ON1c1ccccc1 (configuration not stated),2,9,11571,2.6,0,0,-6
COC(=O)c1ccc2c(=O)n(CC3CCCO3)c(SCC(=O)Nc3ccc(OC)cc3OC)nc2c1 (configuration not stated),14,7,5218,6.0,1,-4,-28
c1ccc(Cc2nnc3sc(-c4cccs4)nn23)cc1,7,4,7931,1.4,-21,-7,-1
CCOC(=O)c1cn(CC(=O)Nc2cccc(Cl)c2C)nn1,1,4,9668,1.1,-2,-4,-9
CCc1cccc(C)c1NC(=O)CON=C(C)c1cc2ccccc2o1,1,12,x,2.7,x,4,x
O=C(CSc1nnc(-c2ccncc2)o1)NC1C2CC3CC(C2)CC1C3 (configuration not stated),6,1,2557,3.0,14,3,1
CCOCCn1c(CN2CCCCC2C)nc2c1c(=O)n(C)c(=O)n2C (configuration not stated),3,4,4924,-11,-2,-7,-11
CCc1ccc(OCCOC(=O)Nc2ccccc2)cc1,-8,2,4093,1.5,-4,-5,-15
CCCCCCCC(=O)N/N=C(\C)c1cccnc1,x,x,4351,x,-8,x,0
CC1CCCCC1NC(=O)COC(=O)/C=C/c1ccc2c(c1)OCO2 (configuration not stated),9,7,8126,4.4,6,6,-24

# Gathered by group, the entries above with an NH in an aromatic ring.
SMILES,Mtb hypoxia rep,Mtb hypoxia rep growth,Autofluor counter,RN4220 kill,BJeLR lethal,Sa ugtP lethal,PrP 5UTR inh
COc1ccc(OC)c(-c2cc(C3CCN(c4cc(Cl)nc(N)n4)CC3)[nH]n2)c1,-5,-6,9288,2.1,8,-10,3
O=C(CSc1nnc(-c2ccccc2F)n1CCc1ccccc1)Nc1ccc2[nH]c(=O)[nH]c2c1,10,6,2195,3.9,5,-3,-18
O=C(CCCSc1nc2sc3c(c2c(=O)[nH]1)CCC3)NCCCO,12,4,7478,2.2,7,2,-3

# (listing goes on)
SMILES,Mtb hypoxia rep,Mtb hypoxia rep growth,Autofluor counter,RN4220 kill,BJeLR lethal,Sa ugtP lethal,PrP 5UTR inh
CCOc1ccc2nc(Cl)c(/C=C/C(=O)c3ccco3)cc2c1,7,6,8670,1.5,-1,-6,-10
CN(C)CCN(CC1CCCN(Cc2ccccc2F)C1)C(=O)Cc1ccccc1F (configuration not stated),0,-5,x,1.3,3,7,-51
O=C(Nc1nnc(S(=O)(=O)N2CCOCC2)s1)c1ccccc1F,-2,11,5730,-0.5,-3,-7,-15
CCOc1ccc(N=C2NN=C(c3cc(C)n(CC4CCCO4)c3C)CS2)cc1 (configuration not stated),-2,-4,2986,5.5,-1,-1,-36
O=C(CCNC(=O)C1CCN(S(=O)(=O)c2ccc(F)cc2)CC1)NCc1cccnc1,12,1,5171,0.4,2,0,-5
O=S(=O)(Nc1cccc2c1CCCC2)c1ccc(Cl)cc1,8,-1,2341,9.6,-3,-10,-4
CCOC(=O)NN=Cc1c(F)cccc1F,-16,-11,x,6.4,x,4,x
O=c1cc(-c2ccccc2)cc(-c2ccccc2)n1CCCO,1,4,3029,6.8,-7,-13,-4
CC(Cc1ccccn1)NC(=O)CCc1nnc(C2CCCCC2)o1 (configuration not stated),14,5,3927,9.6,-1,-3,-38
COC(=O)C12CC3CC(C1)CC(n1cnc(Cl)n1)(C3)C2,12,9,3951,6.7,2,-5,-9
CCN(CC)S(=O)(=O)c1cccc(-c2nnc(SCC(=O)NC3CCCCCC3)n2N)c1,1,-17,22076*,2.0,-7,1,-16
O=C(CSc1nnc(Cc2cccs2)n1Cc1ccco1)Nc1cccc(Cl)c1,-5,3,22807*,16,-8,-3,-16
COC(=O)c1sc(NC(=O)COc2cccc3ccccc23)nc1C,-2,9,4543,8.5,4,-15,-19
